Screening results as filed in PubChem.
HPGD inh: HPGD (human) dehydrogenase inhibition; 150,000 compounds, 4.3% hits; purified HPGD, NADH fluorescence kinetic, PGE2 substrate; Potency, µM, without a hit: top-dose activity change, negative = inhibition, most hits filed as inhibitors; P15428; active = well fitted inhibition curve with a large enough effect (not every such curve was filed as active); inconclusive = small, poorly fitted or top-dose-only effect, or another doubt; inactive = no such curve, though single readings can be large or run the other way;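 note: top concentration of the series not given in the record; plate controls included wells without enzyme; inactives centre near -10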
Target sequence (P15428 whole entry, looked up): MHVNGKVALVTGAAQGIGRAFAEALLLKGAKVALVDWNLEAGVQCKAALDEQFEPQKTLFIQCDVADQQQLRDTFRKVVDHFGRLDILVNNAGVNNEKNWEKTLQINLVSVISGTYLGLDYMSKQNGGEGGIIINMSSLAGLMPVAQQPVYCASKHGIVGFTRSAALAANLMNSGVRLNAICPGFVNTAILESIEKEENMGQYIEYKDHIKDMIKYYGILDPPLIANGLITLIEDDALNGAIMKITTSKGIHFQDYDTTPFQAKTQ
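NADH formation kinetics: reaction with 30 uM PGE2 and 1 mM NAD+ (final), 20 nM enzyme, Tris-HCl pH 8 with Tween 20, after 15 min compound preincubation at room temperature. Fluorescence change, last versus first of five reads.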
Active calls of the source: *; ? = inconclusive; & = joins results of further samples. % is set by controls: 0 for no effect and ±100 for the full control effect; potency is the fitted concentration of half-maximal effect. Not all compounds are listed; the hit share may differ from the screen's.

No. | HPGD inh | molecule
1 | -2% | O=C(O)CCC/C=C\C/C=C\C=C\[C@@H](O)C/C=C\CCCCCO
2 | -29% | COC(=O)c1c(NC(=O)CN2CCN(C(=O)c3ccco3)CC2)c2c(C)cccc2n1C
3 | -4% | CCOC(=O)C(=CN(CCc1ccccc1)CC(=O)OC)C(=O)OCC
4 | -6% | COC(=O)[C@@H](NC(=O)NC1CCCc2ccccc21)C(C)C (stereo not given in full)
5 | -20% | COCCCNc1ncnc2sc3c(c12)CCC(C)C3 (stereo not given)
6 | -28% | COc1cccc(/C=N/NC(=O)c2csc(-n3nc(C)cc3C(F)(F)F)n2)c1
7 | -12% | O=C1NC(=O)C2(COC(c3cccnc3)OC2)S1 (stereo not given)
8 | -4% | C[C@]1(C(=O)O)Cc2oncc2C[C@@H]1C(=O)O
9 | 3% | CC(C)C(NS(=O)(=O)c1ccc2c(c1)oc(=O)n2C)C(=O)N1CCN(c2ccccc2F)CC1 (stereo not given)
10 | -15% | O=C(N/N=C/c1ccncc1)C1CC1C(=O)N/N=C/c1ccncc1 (stereo not given)
11 | -19% | Cc1ccc(-c2nc(-c3ccccn3)no2)cc1
12 | -2% | CCOC(=O)N1CCC(NC(=O)C2CCN(S(=O)(=O)N3CCC(C)CC3)CC2)CC1
13 | 3% | CCC(Sc1nc2n[nH]c(C)c2c(=N)n1-c1cc(Cl)ccc1C)C(=O)N1CCOCC1 (stereo not given)
14 | -3% | CCCNC(=O)Cn1cnc([N+](=O)[O-])n1
15 | 0% | O=C(COC(=O)c1cccc(Cl)c1)NCCN1C(=O)CSC1=O
16 | -10% | CC(C)(C)c1ccc(C(=O)Nc2ccccc2NC(=O)c2ccco2)cc1
17 | -12% | O=C(Cn1nnc2ccccc21)NC1CCCCC1
18 | -10% | CCc1cccc(CC)c1NC(=O)COC(=O)CC1c2ccccc2CCN1S(=O)(=O)c1ccc(F)cc1 (stereo not given)
19 | -3% | Cc1ccc(C2=N/C(=C/c3cccs3)C(=O)N2Nc2ccccc2)cc1
20 | -7% | O=C(NCC1CC1)[C@H]1C[C@@H]1[C@H](NP(=O)(c1ccccc1)c1ccccc1)c1ccccc1
21 | -2% | O=C(COc1ccc(F)cc1)OCCN1CCOCC1
22 | -14% | COc1ccc(CCNC(=O)c2c[nH]c3ccccc3c2=O)cc1OC
23 | -9% | CC(/C=N/NC(=O)C(O)c1ccccc1)=C\c1ccccc1 (stereo not given)
24 | -10% | CCNC(=O)COC(=O)CNC(=O)c1cc(Cl)cc([N+](=O)[O-])c1
25 | -11% | Cc1ccc(S(=O)(=O)N2CCC(C(=O)NCCN3CCCCCC3)CC2)cc1
26 | -9% | Cc1cn(CC2COC(C)(C)O2)c(=O)[nH]c1=O (stereo not given)
27 | 0% | Cc1ccc(O)c(N=Cc2cccs2)c1
28 | -13% | O=c1[nH]nc(Cc2ccc(Cl)cc2Cl)c2ccccc12
29 | -5% | N#CCCN(CCC#N)C(=O)c1ccc(Cl)cc1
30 | -17% | O=C(O)CCCCCN1C(=O)/C(=C/c2ccncc2)SC1=S
31 | -16% | COc1cc(NC(=O)CSCc2cnn(-c3ccccc3)c2-n2cccc2)cc(OC)c1
32 | -3% | CCCN1C(=O)c2cc(C(=O)NCc3cccs3)ccc2C1O (stereo not given)
33 | -28% | Cc1cccc(C)c1NC(=O)COc1ccc2c(C)c(Cc3ccccc3)c(=O)oc2c1C
34 | -23% | COc1ccccc1C(C)NC(=O)c1ccc(C)o1 (stereo not given)
35 | 0% | O=C(Nc1cccnc1)c1cnn2cccnc12
36 | -27% | CCCn1c(-c2ccc(F)cc2)nc2c(NC(C)CN(C)C)nc(C)nc21 (stereo not given)
37 | -10% | CC(CCc1ccco1)NC(=O)Cn1ncc2c(=O)oc3ccccc3c21 (stereo not given)
38 | 2% | CC(C)=C1C2CC2C2C(C(=O)O)C12 (stereo not given)
39 | ? | CCc1c(C)c2ccc(OCC(=O)OC)cc2oc1=O
40 | 0% | CCCC/C(C)=N/NC(=O)C(=O)NCCc1ccccc1

Some of these compounds in order of the HPGD inh value, high to low:
no.	Compound	HPGD inh
9	CC(C)C(NS(=O)(=O)c1ccc2c(c1)oc(=O)n2C)C(=O)N1CCN(c2ccccc2F)CC1 (stereo not given)	3%
21	O=C(COc1ccc(F)cc1)OCCN1CCOCC1	-2%
19	Cc1ccc(C2=N/C(=C/c3cccs3)C(=O)N2Nc2ccccc2)cc1	-3%
33	Cc1cccc(C)c1NC(=O)COc1ccc2c(C)c(Cc3ccccc3)c(=O)oc2c1C	-28%

Continued:
No. | HPGD inh | molecule
41 | ? | CN1CCc2c(sc3nc(SCC(=O)N4CCOCC4)nc(N)c23)C1
42 | -4% | CN(C)C(=O)CSc1nnc(-c2cccnc2)n1-c1ccccc1
43 | -15% | O=C1C(Cc2ccccc2)NC(=S)N1c1ccccc1 (stereo not given)
44 | -12% | CC(=O)Nc1nn(C)c2nc3cc(C)ccc3cc12
45 | -8% | O=C1CCCN1CC(CN1CCOCC1)Sc1nc2ccccc2c(=O)n1-c1ccccc1 (stereo not given)
46 | 10µM* | COc1cc(/C=C2/SC(=S)NC2=O)ccc1OS(=O)(=O)c1ccc(C)cc1
47 | -13% | Cc1ccc(-c2cnc(NC(=O)CCC(=O)N(C)Cc3ccccc3)n2C)cc1
48 | -4% | CCn1c(SCC(=O)Nc2ccc(S(N)(=O)=O)cc2)nnc1-c1ccccc1OC
49 | -9% | COC(=O)COc1cccc(NC(=O)c2ccc(C)cc2)c1
50 | -17% | Fc1ccc(N2CCN(c3nc(-c4ccco4)cc(C(F)(F)F)n3)CC2)cc1
51 | -20% | CCOC(=O)c1sc(N)c(C#N)c1CSc1nc2ccc(OCC)cc2[nH]1
52 | -11% | O=C(CSc1nnc(-c2ccccc2Br)o1)Nc1cccc2ccccc12
53 | -1% | CCOc1cc(CNc2ccc3c(c2)OCCO3)cc(Br)c1OC
54 | -9%&-4% | CC(=O)NNC(=O)N1Cc2ccccc2Oc2ccc(Cl)cc21
55 | -14% | O=C(CN1CCCN(S(=O)(=O)c2ccc(F)cc2)CC1)Nc1ccccc1Br
56 | 8.9µM* | O=c1[nH]c(/C(Cl)=C/c2cc(Cl)ccc2O)nc2cc(Cl)ccc12
57 | 25µM* | O=C(/C=C/c1cccc([N+](=O)[O-])c1)NCCSCc1ccco1
58 | ? | CCN(CC)CCn1cnc2c([nH]c3cccc(OC)c32)c1=O
59 | -8% | Cc1ccc(NS(=O)(=O)c2ccc(CCC(=O)N3CCOCC3)cc2)cc1
60 | -3% | O=c1cc(N2CCCCC2)nc2n1CCCS2

Sorted by formula weight (ascending): some entries from above.
No. | HPGD inh | molecule
60 | -3% | O=c1cc(N2CCCCC2)nc2n1CCCS2
53 | -1% | CCOc1cc(CNc2ccc3c(c2)OCCO3)cc(Br)c1OC
55 | -14% | O=C(CN1CCCN(S(=O)(=O)c2ccc(F)cc2)CC1)Nc1ccccc1Br

The results go on:
No. | HPGD inh | molecule
61 | ? | Cc1cc(C)n(-c2nncc(-c3ccccc3)n2)n1
62 | -1% | CCOc1ccc(NC(=S)Nc2ccc(C)c([N+](=O)[O-])c2)cc1
63 | -1% | O=S(=O)(c1cccc2cccnc12)n1cnc2ccccc21
64 | ? | Cc1nc(NC(=O)c2ccccc2)sc1-c1csc(Nc2cccc(Cl)c2)n1
65 | -27% | CCOc1cc(C)nc(Oc2ccc(=O)[nH]n2)n1
66 | ? | CCOC(=O)c1sc(NC(=O)CSc2nnc(-c3ccco3)n2CC)c(C(=O)OCC)c1C
67 | -13% | CCn1c(Cc2ccccc2)nnc1SCC(=O)Nc1nc(C)cs1
68 | -13% | O=C(c1ccc2c(c1)OCCO2)N(c1ccccn1)C1CCCCC1
69 | -22% | CCCCC(=O)NC(=S)Nc1cc(C(=O)O)ccc1Cl
70 | -22% | CCOC(=O)c1ccc(NC(=O)c2cc3ccccc3o2)cc1
71 | -6% | Nc1cc(S(=O)(=O)O)ccc1O
72 | -10% | O=c1cnc2cnc(Nc3ccccc3)nc2n1C[C@H]1CCCO1
73 | ? | Cc1ccc2c(c1)c(=O)c1c3n2CCN(C(=O)CCl)C3CC1 (stereo not given)
74 | -23% | Cc1cc(C)nc(SCc2nnc(SCC(=O)Nc3nc(-c4ccccc4)cs3)n2C)n1
75 | -9% | N#C/C(=N\Nc1ccccc1)C(=N)N1CCCCC1
76 | -12% | CCN(C(=O)Cn1c(=O)n(Cc2ccccc2)c(=O)c2ccccc21)c1cccc(C)c1
77 | -21% | COc1ccc(-c2noc(C3CCCN(S(=O)(=O)c4cccc(Cl)c4C)C3)n2)cc1OC (stereo not given)
78 | -14% | COc1ccc(-c2nnc(SCC(=O)Nc3ccccc3OC)o2)cc1
79 | -11% | CC1=C(C(N)=O)C(c2sccc2C)n2nnnc2N1 (stereo not given)
80 | -1% | CC1(C)CCCN(C(=O)N2c3ccccc3Sc3ccccc32)C1
81 | -10% | CC(C)CNC(=O)C1CCN(c2ccc(S(=O)(=O)N3CCOCC3)cc2)CC1
82 | 5% | CCCCCCCC(=O)NNC(=O)c1ccc(F)cc1
83 | ? | O=c1[nH]cnc2sc3c(c12)CCN(Cc1ccccc1)C3
84 | ? | Cc1cccc(Cc2cnc(N3C(=N)SC(c4ccccc4)C3=O)s2)c1 (stereo not given)
85 | -6% | O=C(OC(C(=O)O)C(OC(=O)c1ccccc1)C(=O)NCc1ccccc1)c1ccccc1 (stereo not given)
86 | -9% | O=C(OCC(=O)N1CCOCC1)c1ccc(Cl)nc1
87 | -6% | Cc1cc(NC(=O)CSc2nnnn2C)n(-c2ccccc2)n1
88 | -1% | CC(=O)N1CCN(c2ccc(NC(=O)c3ccc4c(c3)OCO4)cc2)CC1
89 | ? | COc1ccccc1/C=C/C(=O)NC(=S)NC(C)C
90 | -19% | CSc1nc2sc3c(c2c2nnnn12)CCC3
91 | -10% | CCOC(=O)C1=C(C)N(C)C(=O)NC1c1cc2c(cc1Br)OCO2 (stereo not given)
92 | -13% | COc1cc(C2C(C#N)=C(N)Oc3cc(O)ccc32)cc(OC)c1OC (stereo not given)
93 | 1% | CNC(=O)CN(C1CCCCC1)S(=O)(=O)c1ccc(F)cc1
94 | -19% | COc1c(Cl)cc(Cl)cc1C(=O)n1nc(C)cc1C
95 | 2% | CCOc1cc(CNn2nnnc2N)ccc1OCC(=O)NC(C)(C)C
96 | -14% | O=C(NCc1ccccc1Cl)c1ccccc1CCc1ccccc1
97 | -21% | CC1=NN(C(N)=S)C(=O)C1N=Nc1c(C)cc(C)cc1C (stereo not given)
98 | -9% | CCc1nnc(NC(=O)CSc2nccn2-c2cccc(C)c2)s1
99 | -3% | COC(=O)c1c(O)cc(C(C)(C)C)n(-c2ccc(F)cc2)c1=O
100 | ? | Cc1cc(C)nc(SCc2nnc(SCc3ccccc3Cl)o2)n1
101 | -17% | CCCCOP(=O)(c1ccc(N(C)C)cc1)C(O)c1ccccc1F (stereo not given)
102 | -11% | O=C(CSc1nc2ccccc2[nH]1)Nc1cc(C(F)(F)F)ccc1N1CCOCC1
103 | 0% | Cc1cc(C(=O)OCC(=O)N2c3ccccc3NC(=O)C2(C)C)c(C)n1-c1ccccc1
104 | ? | CCC(=O)Nc1ccc(-c2nnc(SCc3ccc(C(=O)Nc4nccs4)cc3)n2CC)cc1
105 | ? | O=C(Nc1ccc(-c2nc3ccccc3o2)cc1)c1ccc2c(c1)OCO2
106 | 22µM* | O=CN1CC(=O)N(c2ccccc2)c2c([nH]c3ccccc23)C1
107 | -8% | CN(C)CCNCc1ccc(OC2CCCC2)cc1
108 | ? | COc1ccc(-c2nc3ccccc3s2)cc1O
109 | -2% | C[C@H](NC[C@H](O)CP(=O)(O)CC1CCCCC1)c1ccc(Cl)c(Cl)c1
110 | -21% | Oc1ccc2ccccc2c1C=NC12CN3CCN(CN(C3)C1)C2

(list continues)
No. | HPGD inh | molecule
111 | -2% | CCOC(=O)C1=C(C)N(C2CCCCC2)C(=O)C1
112 | -10% | C=C(C(C)=O)C(O)c1cccc(OC)c1 (stereo not given)
113 | -27% | COc1cc(/C=C2/C(=N)N3C=CSC3=NC2=O)ccc1OCCCOc1cc(C)ccc1C
114 | -23% | O=C(CSC1=NCCS1)NCc1ccco1
115 | 4% | CN(C)S(=O)(=O)c1cc(NC(=O)CN2CCNC(=O)C2)ccc1Cl
116 | ? | COc1ccc2c(c1)-c1nc(NC(=O)c3cccs3)sc1CC2
117 | -6% | Cc1ccc2c(c1)N(CC(=O)Nc1ccc3c(c1)OCCO3)C(=O)CO2
118 | 2% | COc1ccc(C(CNC(=O)CN2C(=O)NC3(CC(C)CC(C)(C)C3)C2=O)N2CCOCC2)cc1 (stereo not given)
119 | -12% | COc1cc(OC)cc(C(=O)NC(=S)Nc2ccc(NC(=O)c3ccco3)cc2)c1
120 | -9% | O=C(NCCC1=CCCCC1)C1CCN(S(=O)(=O)c2cccc3nsnc23)CC1

Some of the entries so far, field by field:
112: C=C(C(C)=O)C(O)c1cccc(OC)c1 (stereo not given)
  HPGD inh: -10%
113: COc1cc(/C=C2/C(=N)N3C=CSC3=NC2=O)ccc1OCCCOc1cc(C)ccc1C
  HPGD inh: -27%
114: O=C(CSC1=NCCS1)NCc1ccco1
  HPGD inh: -23%
115: CN(C)S(=O)(=O)c1cc(NC(=O)CN2CCNC(=O)C2)ccc1Cl
  HPGD inh: 4%

More entries
No. | HPGD inh | molecule
121 | -13% | O=C(c1cc2n(n1)C(C(F)(F)F)CC(c1ccc(Cl)cc1)N2)N1CCCC1 (stereo not given)
122 | -23% | O=C(Nc1ccc([N+](=O)[O-])cn1)c1cc(-c2cccc(Cl)c2)nc2ccccc12
123 | -22% | Cc1ccc(NC(=O)/C(Cl)=C\c2ccccc2)cc1
124 | ? | COc1ccc(Nc2ncc(C(=O)N3CCN(c4ccc(F)cc4)CC3)c3ccccc23)cc1
125 | ? | CC(C)Oc1ccc(C(=O)NCc2cccs2)cc1
